YjeE inh = displaces an ADP probe from E. coli YjeE (TsaE); Potency, µM; P0AF67; actives 0.05% (n = 71,000); purified YjeE, fluorescence polarisation of a bound ADP probe; active = well fitted falling curve; inconclusive = weaker or top-dose-only fall, or a rising curve; inactive = flat or poorly fitted curve;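 note: top concentration of the series not given in the record; excess ADP was the control for the full effect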
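Fluorescence polarization of a BODIPY Texas Red–ADP probe (2 uM) bound to purified YjeE (10 uM) was read after 15 min room-temperature incubation with compounds. Loss of polarization marks inhibitors; ADP serves as titrated control.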
PK Bst = pyruvate kinase (B. stearothermophilus) modulation; partly purified Bacillus stearothermophilus pyruvate kinase, luminescence ATP production; ribose 5-phosphate activator present at AC10; Potency, µM; actives 1.2% (n = 51,000); AID 361; in the data active means potency below about 11 µM; inconclusive means mostly about 12 µM to 25 µM; inactive means weaker than that;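 the screen sought inhibitors and activators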;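 note: potency is the fitted concentration of half-maximal effect; scaled between full activation by ribose 5 phosphate and full inhibition by luteolin; about four in five hits inhibit and the cells do not say which; series up to 57 µM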
Numbers without * were called inactive; i = inactive; . = no result given. Not all compounds are listed; count on the stated rates, not on these rows.

smiles	YjeE inh	PK Bst
Cn1nc(-c2ccc(N3CCOCC3)c(NS(=O)(=O)c3ccccc3)c2)c2ccccc2c1=O	i	>57
CC(=O)N1CCc2cc(S(=O)(=O)CCC(=O)N3CCN(C(=O)c4ccco4)CC3)ccc21	i	>57
COc1ccc(CNC(=O)CSc2nnc(-c3ccc(NC(C)=O)cc3)n2C)cc1	i	>57
Cc1ccc(C(C)NC(=O)c2cc(C)oc2C)cc1 (stereo not drawn)	i	>57
COc1ccc(-c2csc(NC(=O)C3CCCO3)n2)cc1 (stereo not drawn)	i	i
COc1ccc2[nH]c(=O)c(CN(Cc3ccc(C)cc3)Cc3nnnn3CC3CCCO3)cc2c1 (stereo not drawn)	i	.
COc1ccc(CNC(=O)C(c2ccco2)N(Cc2cccs2)C(=O)Cc2cccs2)cc1 (stereo not drawn)	i	>57
C=CCN1C(=O)C2C(C(=O)NC)C3(C)C=CC2(O3)C1C(=O)NCc1ccc(OC)cc1 (stereo not drawn)	i	>57
COC(=O)C1C(c2ccccc2)C(C(=O)N2CCN(C)CC2)C1c1ccccc1 (stereo not drawn)	i	>57
COc1ccc(-c2noc(COc3ccccc3OC)n2)cc1OC	i	.
CCN1CCN(CCNC(=O)c2ccc(CS(=O)(=O)c3c(Cl)cccc3Cl)o2)CC1	i	.
Cc1ccc(-c2nn3c(C)nnc3s2)cc1NC(=O)c1ccc(Br)o1	i	.
Cc1nc2nc(COc3ccccc3)nn2c(C)c1Cl	i	>57
COC(=O)c1cc2oc(C)cc2n1CC(=O)N1CCCc2ccccc21	i	>57
COCCn1c(-c2ccc(OC)cc2)cnc1SCC(=O)Nc1cc(C)on1	i	>57
O=C(O)Cn1nnnc1-c1ccc(F)cc1	i	>57
Cc1[nH]c2ccc(Br)cc2c(=O)c1CN1CCOCC1	i	>57
N#Cc1ccc2ccn(CC(=O)N3CCCc4ccccc43)c2c1	i	>57
CC1(C(=O)NCc2cccnc2)CCC(=O)N1Cc1cccs1 (stereo not drawn)	i	.
O=C(Nc1ccccc1)NC1(C(=O)NCc2ccco2)CCCCC1	i	>57

(next part)
smiles	YjeE inh	PK Bst
O=C1NC(=S)S/C1=C1\Sc2ccccc2N1CCCS(=O)(=O)O	i	7.7*
CCn1nnnc1SCC(=O)N1CCOCC1	i	>57
O=C(O)/C(Cc1cn[nH]n1)=N\O	i	.
O=C(CCc1ccccc1)Nc1nc2ccc(S(=O)(=O)N3CCOCC3)cc2s1	i	>57
O=C(O)COc1ccc(-c2nnn(Cc3ccccc3F)n2)cc1	i	>57
O=C(Nc1cccc(C(=O)N2CCOCC2)c1)c1ncn[nH]1	i	>57
CC1CCN(CCCNC(=O)c2n[nH]c(=O)c3ccccc23)CC1	i	>57
N=c1c2c(-c3ccccc3)c(-c3ccccc3)n(Cc3ccco3)c2ncn1CCN1CCOCC1	i	>57
CCn1c(COc2ccc(Cl)cc2)nnc1SCC(=O)Nc1ccc2c(c1)OCCO2	i	>57
Nc1nc(-c2cccnc2)cc(-c2cc(-c3cccnc3)nc(N)n2)n1	i	.
O=C(c1ccco1)[C@@H]1[C@@H]2C(=O)N(c3ccc(F)cc3)C(=O)[C@@H]2C2c3ccccc3C=CN21 (stereo partly drawn)	i	>57
CN(C)c1ncc2nc(-c3cccc(C#N)c3)c(=O)n(CCC#N)c2n1	i	.
COc1ccc(CCNC(=O)CCNS(=O)(=O)c2ccc3c(c2)CCN3C(C)=O)cc1OC	i	>57
COc1ccc(N2CSC3=C(C#N)C(c4cc(OC)c(OC)cc4OC)CC(=O)N3C2)c(OC)c1 (stereo not drawn)	i	.
Cc1cc2c(cc(C(=O)N3CCC(C(=O)NC4CCCC4)CC3)n2Cc2c(F)cccc2Cl)o1	i	.
CCOC(=O)C1CCN(C(=O)CN(C)S(=O)(=O)c2cc(C)ccc2OC)CC1	i	>57
Cc1cc(C2(c3cc(C)c(O)c(C(=O)O)c3)OS(=O)(=O)c3ccccc32)cc(C(=O)O)c1O	i	.
COc1ccccc1NC(=O)CN1CCCCC1	i	>57
Oc1ccc2ccccc2c1C=NCc1c(O)ccc2ccccc12	i	.
CCC(C)(C)n1nnnc1C(c1ccncc1)N1CCN(c2cccc(OC)c2)CC1 (stereo not drawn)	i	>57

(cont.)
| SMILES | YjeE inh | PK Bst |
| --- | --- | --- |
| CCOc1ccc(C2N(c3ccc(F)cc3)C(=O)C3CCCN32)cc1OC (stereo not drawn) | i | . |
| Cc1cnc(CNc2ccnc(-c3cccc(NS(C)(=O)=O)c3)n2)cn1 | i | . |
| O=C(c1ccccc1)N(Cc1ccc2c(c1)OCO2)Cc1nc2ccccc2c(=O)[nH]1 | i | >57 |
| CCc1ccc(C(=O)CSc2n[nH]c(C)n2)cc1 | i | . |
| CCOC(=O)c1c(NC(=O)CSc2nnc(-c3ccccc3C)n2C)sc(C(C)=O)c1C | i | >57 |
| C[C@@H]1C[C@H](OC(=O)[C@@H](O)c2ccccc2)CC(C)(C)N1C | i | . |
| CCCc1nc2ccccc2c(=O)n1/N=C/c1ccccc1O | i | >57 |
| Cn1c(N2CCCCC2)nc2c1c(=O)[nH]c(=O)n2C | i | >57 |
| C=CCSc1nnc(CSc2nc3sc4c(c3c(=O)[nH]2)CCCC4)n1-c1ccccc1 | i | . |
| COc1cccc(-c2ccc3ncnc(N4CCNCC4)c3c2)c1 | i | . |
| C=CCN1CCN(C(c2ccc(OC)c(OC)c2)c2nnnn2C(C)(C)C)CC1 (stereo not drawn) | i | >57 |
| Oc1c(C(c2ccccn2)N2CCOCC2)ccc2cccnc12 (stereo not drawn) | i | >57 |

Reprinted from the part before: two entries; new compounds follow.
| SMILES | YjeE inh | PK Bst |
| --- | --- | --- |
| C=CCN1CCN(C(c2ccc(OC)c(OC)c2)c2nnnn2C(C)(C)C)CC1 (stereo not drawn) | i | >57 |
| Oc1c(C(c2ccccn2)N2CCOCC2)ccc2cccnc12 (stereo not drawn) | i | >57 |
| COc1ccc(NC(=O)c2cccs2)cc1O | i | . |
| Cc1ccc(N2C(=O)CSC23C(=O)Nc2ccccc23)cc1 (stereo not drawn) | i | >57 |
| c1cc(-c2sc(-c3ccncc3)c(-c3ccncc3)c2-c2ccncc2)ccn1 | i | . |
| CCOC(=O)c1sc2nc(C)cc(C)c2c1NC(=O)c1ccco1 | i | i |
| CN1c2ccccc2N(C)C1c1ccc2c(c1)OCO2 | i | >57 |
| N[C@H](CCC(=O)N[C@H](CSN=O)C(=O)NCC(=O)O)C(=O)O | i | . |
| C=CCn1c(SCC(=O)NCC2CCCO2)nc2scc(-c3ccco3)c2c1=O (stereo not drawn) | i | >57 |
| Oc1ccccc1C(=S)N1CCCCC1 | i | . |
| O=C(c1cnccn1)N1CCC2(CC1)CN(Cc1cc(C(F)(F)F)cc(C(F)(F)F)c1)C2 | i | . |
| O=c1c2ccccc2nc(-c2ccccc2)n1CCCN1CCOCC1 | i | >57 |
| COC(=O)c1ccc(NC(=O)CS(=O)(=O)Cc2ccccc2)cc1 | i | >57 |
| Cn1c(=O)[nH]c2ncn(C)c2c1=O | i | . |

Following part.
| SMILES | YjeE inh | PK Bst |
| --- | --- | --- |
| C=CCn1c(SCC(=O)NCc2ccccc2)nnc1-c1ccccc1O | i | >57 |
| COC(=O)N1CCC2(CC1)CN(C(c1ccccc1)c1ccccc1)C2 | i | . |
| O=c1cc(NCCO)c2ccccc2o1 | i | . |
| O=C(CSCCSCC(=O)c1ccco1)c1ccco1 | i | >57 |
| CCC/C(O)=C1\C(=O)CC(C)(C)CC1=Nc1ccc(OC)cc1OC | i | >57 |
| Cc1cc(CN2C(=O)c3ccccc3C2=O)on1 | i | >57 |
| CCn1nc(C(=O)OCC(=O)N2c3ccccc3CC2C)c2ccccc2c1=O (stereo not drawn) | i | >57 |
| Cc1onc(-c2c(F)cccc2Cl)c1C(=O)NCc1ccccn1 | i | . |
| CCS(=O)(=O)Nc1ccc(-c2nnc(SCC(=O)OC)o2)cc1 | i | >57 |
| O=C1C2=C(SCCS2)C(=O)N1c1ccccc1 | i | . |
| Nc1cc(OC(=O)c2ccco2)nn1S(=O)(=O)c1ccc(F)cc1 | i | >57 |
| CCOc1nnnc2c1sc1nc(N3CCOCC3)c3c(c12)CC(C)(C)OC3 | . | >11 |

Following part:
| SMILES | YjeE inh | PK Bst |
| --- | --- | --- |
| COc1ccc(S(=O)(=O)NCC(c2cccnc2)N2CCN(c3ccccc3OC)CC2)cc1C (stereo not drawn) | i | >57 |
| COc1cccc(C2CC(=O)NC3=C2C(=O)CCC3)c1 (stereo not drawn) | i | >57 |
| Cc1nc2cnc(N3CCNCC3)nc2n(CCc2ccccc2)c1=O | i | . |
| CCOC(=O)c1ccc(NCn2c(=O)oc3ccccc32)cc1 | i | . |
| COc1cccc(NC(=O)C2CC(=O)N(C)C(=Nc3cccc(F)c3)S2)c1 (stereo not drawn) | i | >57 |
| O=C(c1ccco1)N1CCN(c2cc(=O)n(C3CCCCC3)c(=O)[nH]2)CC1 | i | >57 |
| CN1CCN(C(=O)c2ccc(-c3nn(C)c(=O)c4ccccc34)cc2)CC1 | i | >57 |
| O=C(c1cccc(S(=O)(=O)N2CCCCC2)c1)N1CCCCC1 | i | >57 |
| Cc1onc(-c2ccccc2Cl)c1C(=O)NCCn1ccc2ccccc21 | i | >57 |
| C=CCOc1cccc(C2C(C(=O)c3ccco3)=C(O)C(=O)N2CCN2CCOCC2)c1 (stereo not drawn) | i | >57 |
| O=C1c2ccccc2C(=O)N1n1c(=O)[nH]c2ccccc2c1=O | i | >57 |
| COCc1[nH]nc2c1C(c1ccnc3ccccc13)C(C#N)=C(N)O2 (stereo not drawn) | . | >26 |

The listing continues.
| SMILES | YjeE inh | PK Bst |
| --- | --- | --- |
| Cn1c(SCc2ccccc2F)nc2cccnc21 | i | . |
| Cc1noc(C)c1C(=O)N1CCC2(CCN(Cc3ccncc3)CC2)CC1 | i | . |
| CCOC(=O)c1cnn(-c2ncnc3sc4c(c23)CCC4)c1N | i | >57 |
| CCCC1Cc2nc(N3CCCCC3)c(C#N)cc2CO1 (stereo not drawn) | i | >57 |
| CCC(=O)Nc1c2c(nn1-c1cccc(Cl)c1)CSC2 | i | . |
| O=C(NC1CCCC1)c1csc2c1CCCC2 | i | >57 |
| COc1ccccc1-c1nnc(SCC(=O)Nc2ccccc2)o1 | i | >57 |
| CCN(CC)CCn1c(O)c(N=O)c2ccccc21 | . | >26 |
| O=C(NCC(c1cccnc1)N1CCN(c2ccc(F)cc2)CC1)OCc1ccccc1 (stereo not drawn) | i | >57 |
| CCCCCNC(=O)c1ccc2c(=O)n(CC3CCCO3)c(=O)[nH]c2c1 (stereo not drawn) | i | >57 |
| COc1ccc(N2CCN(C3CC(=O)N(c4ccc5c(c4)OCCO5)C3=O)CC2)cc1 (stereo not drawn) | i | >57 |
| CCN(CC)CCOc1ccc(/C(=C(\Cl)c2ccccc2)c2ccccc2)cc1 | i | . |

New compounds follow.
| SMILES | YjeE inh | PK Bst |
| --- | --- | --- |
| Cc1noc(C)c1S(=O)(=O)N1CCN(C(c2ccccc2)c2ccc(Cl)cc2)CC1 (stereo not drawn) | i | . |
| Cc1noc(NS(=O)(=O)c2ccc(NC(=O)CSc3nc4ccccc4[nH]3)cc2)c1C | i | >57 |
| Cc1ccc(CN(Cc2cc3cccc(C)c3[nH]c2=O)C(=O)N(C)C)cc1 | i | >57 |
| Cc1ccc(-c2nn(CC(C)(C)C)c3ncnc(N)c23)cc1 | i | . |
| Cn1ccnc1-c1nc2ccccc2[nH]c1=O | i | >57 |
| O=C(COC(=O)CSCC(=O)N1CCCCC1)NCc1ccc(F)cc1 | i | >57 |
| COc1ccc(S(=O)(=O)NC2CCCCC2)cc1C | i | >57 |
| O=C(CC(C(=O)O)C1CCCO1)Nc1cccc(C(F)(F)F)c1 (stereo not drawn) | i | >57 |
| COCCOC(=O)c1c(NC(=O)CN2CCOCC2)sc(C(N)=O)c1C | i | >57 |
| CCn1cnc2cc(NCc3cccc(OC)c3O)ccc21 | i | . |
| COC(=O)c1ccc(Oc2ccc3nnc(C)n3n2)cc1 | i | . |
| Fc1ccc(CSc2nnc(-c3cnccn3)n2Cc2ccco2)cc1 | i | >57 |

The list goes on.
| SMILES | YjeE inh | PK Bst |
| --- | --- | --- |
| Cc1ccc(C(=O)NCc2ccc3c(c2)OCO3)cc1S(=O)(=O)N1CCCCC1 | i | >57 |
| O=C(NCCC1=CCCCC1)C1CCN(S(=O)(=O)c2cccc3nonc23)CC1 | i | >57 |
| CCCCC(=O)Nc1nc2ccc3nc(C)sc3c2s1 | i | . |
| CS(=O)(=O)N(CCc1ccccc1)CC(=O)N1CCCCC1 | i | >57 |
| O=C(NCc1ccc(N2CCCC2=O)cc1)Nc1cccc(Cl)c1 | i | >57 |
| CCS(=O)(=O)N1CCN(c2ccccc2F)CC1 | i | >57 |
| O=C(N1CCOCC1)N1CCCN(C(=O)N2CCOCC2)CC1 | i | >57 |
| O=C(O)CCCC(=O)N1CC(=O)Nc2ccccc21 | i | >57 |
| CCC(c1nnc(SCC(=O)Nc2nnc(-c3ccccc3)o2)n1Cc1ccccc1)N(C)C (stereo not drawn) | i | >57 |
| CC1=C(C(=O)OCc2ccc3c(c2)OCO3)C(c2ccc(F)cc2)NC(=O)N1 (stereo not drawn) | i | >57 |

Rewritten with values under each structure: entries from further up.
Each structure is followed by: YjeE inh	PK Bst
CCS(=O)(=O)N1CCN(c2ccccc2F)CC1
→ i	>57
O=C(N1CCOCC1)N1CCCN(C(=O)N2CCOCC2)CC1
→ i	>57
O=C(O)CCCC(=O)N1CC(=O)Nc2ccccc21
→ i	>57
CCC(c1nnc(SCC(=O)Nc2nnc(-c3ccccc3)o2)n1Cc1ccccc1)N(C)C (stereo not drawn)
→ i	>57

Assay outcomes from PubChem.
